Source: PubChem
LANA-H2B inh – blocks KSHV LANA binding to histone H2A/H2B; Q9QR71; inhibition, % (no concentration beside the values); AID 2629; cell-free LANA-H2A/H2B peptide, fluorescence polarization; 0.6% of 320,000 active; in the data active = inhibition mostly above about 10%, no sharp cut-off; inactive = mostly below about 6.7%;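 note: stock transfer was 7.5 nL into about 10 µL; 0% = median of vehicle wells and 100% = median of positive control wells; one replicate is shown; the record names a cut of 25% in any replicate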
ALR H2O2 inh – human ALR oxidase inhibition via reduced H2O2 | P55789 | purified ALR, DTT oxidation, H2O2 HRP-luminol luminescence | inhibition, % (no concentration beside the values) | 3.8% of 290,000 active | AID 485317;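 active = mean and each replicate at 75% or more; inconclusive = only one of the two met; inactive = neither met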;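 note: stock transfer was 7.5 nL into about 7.5 µL; 0% = neutral wells and 100% = wells with inactivated enzyme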
Target sequence (P55789 whole entry, looked up): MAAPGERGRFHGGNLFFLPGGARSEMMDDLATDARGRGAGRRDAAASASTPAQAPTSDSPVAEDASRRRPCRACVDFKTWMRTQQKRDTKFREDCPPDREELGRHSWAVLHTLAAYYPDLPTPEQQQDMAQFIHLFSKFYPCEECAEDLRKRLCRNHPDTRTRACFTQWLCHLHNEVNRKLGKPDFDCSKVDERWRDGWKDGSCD
Calb FLC – C. albicans growth modulation with fluconazole; AID 1979; C. albicans CaCi-2 (fluconazole-resistant clinical isolate) + fluconazole, Alamar Blue growth, 48 h; 0.57% of 300,000 active; growth inhibition, % (concentration not given with the values);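 active = most replicates above 75%; inconclusive = exactly half above 75%; inactive = most below 75%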;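 note: all wells also contain fluconazole at 8 µg/ml as a sub-toxic cotreatment; 0% = median of DMSO wells and 100% = median of geldanamycin control wells; wells of about 8 µL received 7.5 nL stock; the first replicate is given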
Ecoli rRNA inh – selective bacterial rRNA inhibition in E. coli; E. coli WT GFP vs humanized-ribosome RFP mutants, fluorescence, 24 h; stronger effect = lower value; DMSO median 0, no signal -100; GFP signal change (wild-type ribosome), % (concentration not given with the values); 1.6% of 350,000 active; AID 720706;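 active = significant combined selectivity score with lowered wild-type GFP, culture density cut under 30%, mutant RFP and density less affected; inactive = any of these conditions unmet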; note: one replicate is shown; some compounds called inactive have numbers as strong as hits
B2AR ag – activates human beta-2 adrenergic receptor causing internalization; P07550; Am2.2-beta2AR cells, FAP receptor internalization, flow cytometry; reference of the scale not given here; response, % (no concentration beside the values); 0.43% of 340,000 active;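 active = response above a set limit, near 3 SD of response in nonfluorescent compounds, cut at about 42% in these data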;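 note: stock transfer was 100 nL into about 11 µL; a reference agonist was the positive control; negative values mostly stem from fluorescent compounds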
Target sequence (P07550 whole entry, looked up): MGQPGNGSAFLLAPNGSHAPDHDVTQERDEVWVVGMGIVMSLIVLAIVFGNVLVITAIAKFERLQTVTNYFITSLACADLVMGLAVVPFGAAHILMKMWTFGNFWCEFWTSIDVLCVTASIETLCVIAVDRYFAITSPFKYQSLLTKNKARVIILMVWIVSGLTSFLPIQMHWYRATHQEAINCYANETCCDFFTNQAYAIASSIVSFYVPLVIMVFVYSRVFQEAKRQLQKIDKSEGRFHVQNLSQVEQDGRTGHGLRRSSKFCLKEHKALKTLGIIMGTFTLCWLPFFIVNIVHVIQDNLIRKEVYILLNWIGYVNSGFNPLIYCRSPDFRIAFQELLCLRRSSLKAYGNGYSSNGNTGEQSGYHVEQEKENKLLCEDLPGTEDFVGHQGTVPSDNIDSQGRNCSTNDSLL
A1 inh – inhibitors of the anti-apoptotic protein A1, read as caspase activation | MEF A1-2A-BIM cells, Caspase-Glo 3/7 luminescence, 3 h; percent of clofoctol response, vehicle zero | caspase activation, % (test concentration not listed) | 0.066% of 330,000 active | AID 2462;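 active = over half of replicate activation scores above 10%, or exactly half above 10 with the replicate mean above 10; inconclusive = replicate mean below 10 yet half the replicates above 10; inactive = over half of replicates below 10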;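 note: wells of about 30 µL received 50 nL stock; many hits fall short of the cut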
Beta cell apopt – beta cell apoptosis inhibition; protection from apoptosis, % (test concentration not listed); 0.8% of 300,000 active; AID 435005; INS-1E cytokine-induced death, ATP luminescence, 48 h; percent of positive-control rescue, neutral wells zero;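 active = all replicates at 75% or more, or half of them and the mean; inconclusive = half reach 75% but not the mean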;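 note: 0% = cytokine-treated negative control wells and 100% = positive control rescue; higher means more ATP so stronger rescue from cytokine killing; wells of about 40 µL received 100 nL stock; the first replicate is given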
T cruzi inh – T. cruzi replication inhibition; inhibition, % (concentration not given with the values); T. cruzi beta-gal in NIH3T3, luminescence, 90 h; 1.4% of 300,000 active;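 active = mean inhibition across valid replicates above about 55%, limit read from the data; inconclusive = mean below that limit but half or more replicates reach it; inactive = mean below it, under half of replicates reach it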;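 note: signal also drops with host cell toxicity which is not excluded here; 0% = plate median of DMSO wells and 100% = zero luminescence signal; higher percent means less beta-gal luminescence so fewer parasites; stock transfer was 50 nL into about 50 µL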
Ecoli rRNA inh OD600 – also measured in Ecoli rRNA inh; calls as there; OD600 change, %; measured here: OD600 growth;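 optical density of the mix in the first replicate; 0 = DMSO median and -100 = no signal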
Ecoli rRNA inh RFP – recorded beside Ecoli rRNA inh, whose call it bears; RFP signal change, %; measured here: RFP humanized mutant strains;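 first replicate; 0 = DMSO median and -100 = no signal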
Numbers without * were called inactive; ? = inconclusive; / = no result given; & = joins results of further samples. An excerpt; rates above refer to the full screens.

SMILES | LANA-H2B inh | ALR H2O2 inh | Calb FLC | Ecoli rRNA inh | Ecoli rRNA inh OD600 | Ecoli rRNA inh RFP | B2AR ag | A1 inh | Beta cell apopt | T cruzi inh
COc1cc(CNCCNC(=O)c2nonc2N)ccc1OCc1ccc(Cl)cc1 | -3.3 | -6 | -28 | -49 | -45 | -15 | 11 | 0.3 | 18 | 17
COc1ccccc1OC(=O)c1ccc(SC)cc1OC | -0.8 | -114 | / | / | / | / | 1 | 0.2 | 7 | -20
O=C(CC1(O)C(=O)N(Cc2ccccc2Cl)c2ccccc21)c1ccco1 (stereo unspecified) | -0.8 | / | -34 | / | / | / | 6 | ? | -5 | 1
CCOC(=O)c1c(NC(=O)C2CC(Cl)=CCC2C(=O)O)sc2c1CCCCC2 (stereo unspecified) | 2.7 | 98* | -3 | / | / | / | 8 | 1.2 | / | -6
O=C(/C=C/c1ccco1)Oc1cc(Br)cc(/C=N/NC(=O)c2ccccc2O)c1 | 4.6 | 8 | 90* | / | / | / | 22 | -2.8 | 1 | 7
COc1ccc(/C=C2\SC(=O)N(CCC(=O)N(C)C3CCS(=O)(=O)C3)C2=O)cc1 (stereo unspecified) | -0.1 | -2 | 3 | -1 | 3 | -3.2 | -7 | 3.5 | -6 | 1
O=S1(=O)NC(CC2=CCCCC2)C2CCCCC2O1 (stereo unspecified) | 2.9 | 4 | -33 | -24&-9 | -20&-11 | -3.6&1.0 | 10 | -0.2 | 0 | 19
CC1CN(c2ccccc2)C(=O)CS1 (stereo unspecified) | 3.5 | -2 | -6 | / | / | / | 4 | 2.4 | -1 | -16
O=C(O)c1ccccc1S(=O)(=O)CC(=O)N1CCCCC1 | -3.7 | -6 | -4 | 12 | 5 | -0.2 | -6 | 1.7 | / | -7
O=C(NCc1ccncc1)c1cc(C(=O)C2CCCCC2)c[nH]1 | / | -3 | 25 | 5 | 18 | 1.0 | 2 | 0.0 | 0 | -18
CCCCC(=O)OCC(=O)c1[nH]c(C)c(C(C)=O)c1C | -2.8 | -5 | -4 | -7 | -12 | -0.9 | -2 | -0.1 | 1 | -15
CCOc1ccccc1NS(=O)(=O)c1c[nH]c(C(=O)OC)c1 | 2.0 | -1 | 0 | 8 | 3 | 2.2 | 12 | 1.1 | -3 | -4
CN(Cc1cn(-c2ccccc2)nc1-c1ccc(Cl)cc1)C(=O)CCC(=O)O | -3.6 | 3 | -2 | -16 | -13 | -6.8 | -16 | 0.5 | 2 | 1
Cc1cccc(OCCOC(=O)C2CCN(S(=O)(=O)c3cccs3)CC2)c1 | -10 | -7 | 2 | / | / | / | -5 | -0.9 | -3 | -3
Cc1cccc(N2CCN(C(=O)CC(NC(=O)c3ccccc3)c3ccccc3)CC2C)c1 (stereo unspecified) | -9.6 | / | 1 | / | / | / | -3 | 0.5 | 1 | 17
C/C(=N\NC(=S)NC1CCCCC1)c1ccccc1 | -0.1 | -2 | 3 | / | / | / | -22 | -0.5 | -1 | -3
O=C1CN(C(=O)c2ccccc2)C(c2ccccc2)c2cc(Cl)ccc2N1 (stereo unspecified) | -2.4 | -2 | 12 | -8 | -9 | 0.2 | -1 | -1.0 | 0 | 5
CCSc1ccc([C@@H]2[C@H]3C(=O)N(CC)C(=O)[C@H]3[C@]3(C(=O)OC)CCCCN23)cc1OC | 2.5 | -8 | / | / | / | / | -2 | 1.4 | 0 | /
COc1cc2c(cc1OC)C1=C(C#N)CC/C(=N\S(=O)(=O)c3ccccc3)N1CC2 | 2.0 | -7 | 4 | -4 | -15 | 9.9 | 11 | 0.6 | 2 | -3
CN1CCCN(C(=O)c2cccc3ccccc23)CC1 | 5.0 | -24 | 3 | 1 | -2 | -2.6 | 1 | -0.8 | 2 | -1
O=C(/C=C/c1ccc2c(c1)OCO2)N1CCN(c2n[nH]c(=O)[nH]c2=O)CC1 | 3.5 | -2 | 1 | 4 | 0 | -4.2 | -8 | 0.2 | -1 | -5
O=C(NN1C(=O)c2ccccc2NC1c1ccc([N+](=O)[O-])o1)c1ccc([N+](=O)[O-])cc1 (stereo unspecified) | 2.5 | -70 | 9 | 12 | 10 | 1.6 | -1 | 1.7 | -7 | 29
COc1ccc(S(=O)(=O)Nc2cccc3c2O[C@H](CN(C)CC2CC2)[C@@H](C)CN([C@H](C)CO)C3=O)cc1 | 5.3 | 10 | / | 11 | 10 | -1.9 | -5 | -1.3 | -13 | /
COc1cccc(Nc2nc3ccccc3n3cnnc23)c1 | 3.1 | -9 | 21 | -1 | -10 | 8.8 | -9 | 0.3 | -6 | 5
Cc1nc(-c2ccccc2)nc2n[nH]c(N)c12 | -1.5 | 6 | 1 | 10 | -1 | -4.9 | 3 | 1.6 | 3 | -10
S=c1[nH]nc(-c2ccccn2)n1/N=C/c1ccccc1 | -2.1 | 14 | ? | 4 | 11 | 1.8 | 15 | 0.3 | -3 | -2
O=C(Nc1ccc2c(c1)CCC2)c1cccc(F)c1 | 0.1 | 0 | 2 | -46 | -56 | -25 | 1 | -6.3 | / | -5
COc1ccc(CCNC(=O)CCCCCN2C(=O)[C@@H]3Cc4ccccc4CN3C2=O)cc1OC | 2.2 | -1 | -3 | -4 | -24 | 3.0 | 11 | 0.4 | 0 | 9
NC(=O)C1CCCN(S(=O)(=O)c2ccc3ccccc3c2)C1 (stereo unspecified) | 1.4 | -2 | 1 | -1 | 1 | 5.0 | -5 | -0.1 | -8 | -12
COc1ccc(CN2[C@@H](CC(C)=O)c3ccc(/C=C/C(C)=O)cc3S2(=O)=O)cc1 | 1.2 | 4 | -12 | -11 | -9 | -4.4 | 9 | 0.7 | 0 | 0
COc1cccc(CN(C)C(=O)CCN=C2NS(=O)(=O)c3ccccc32)c1 | 3.2 | -9 | / | 3 | 11 | 0.0 | -10 | 0.3 | -1 | /
CCC1(C)Cc2c(sc3c2c(=O)n(C)c2nnc(SCC(=O)c4ccccc4)n32)CO1 (stereo unspecified) | 13 | -1 | -8 | / | / | / | -4 | 0.4 | 1 | 11
COC(=O)Cn1c(=NC(=O)c2ccc(OC)cc2)sc2cc(OC)ccc21 | 3.6 | / | 27 | 8 | 1 | -0.3 | 15 | -1.0 | 7 | 22
COc1cc(C(=S)N2CCCC2)ccc1OCc1ccc(C)cc1 | -1.7 | -10 | 5 | -17 | -18 | 1.4 | 1 | -0.1 | 3 | -12
O=C(c1cccs1)N(Cc1ccco1)Cc1cc2ccccc2[nH]c1=O | -4.7 | 12 | 6 | / | / | / | -9 | -0.2 | 2 | -9
Cc1ccccc1NC(=O)Nc1nnc(CC(=O)NCc2ccccc2)s1 | -0.3 | -1 | 18 | / | / | / | -4 | -0.6 | -2 | 3
CCOc1c(Nc2ccc(C(C)C)cc2)c(=O)c1=O | -0.5 | 4 | -6 | -14 | 4 | -2.3 | 5 | 0.7 | 0 | -12
COc1cccc(NC(=O)CSc2nnc(Cn3nnc4ccccc43)n2C)c1 | 1.9 | -2 | 3 | / | / | / | -1 | -0.3 | 9 | -11
Cc1ccc(C(C)C)cc1OCC(=O)NNC(=O)Nc1ccccc1 | 4.1 | -5 | 2 | 8 | 1 | -6.8 | -2 | 0.7 | -4 | -13
Cc1cccc2nc(CNC(=O)CC3C(=O)NCCN3Cc3cccc(F)c3)cn12 (stereo unspecified) | -2.2 | -1 | 7 | 6 | 17 | 1.2 | 4 | -0.6 | -5 | 58*
CC(=O)Nc1ccccc1NC(=O)C/C(C)=N/NC(=O)C(=O)N1CCCCC1 | 0.4 | / | -3 | 8 | 7 | -2.0 | 7 | -0.2 | -2 | -10
COc1ccc(-c2csc(NS(=O)(=O)c3ccc([N+](=O)[O-])cc3)n2)cc1 | -1.5 | 24 | 4 | / | / | / | 2 | 0.2 | 3 | 29
CSCCC(NC(=O)c1ccccc1Br)C(=O)NCC1CCCCC1 (stereo unspecified) | 2.2 | -2 | 0 | 13 | 0 | 0.8 | 0 | -0.4 | -1 | 7
O=C(OCC(F)(F)C(F)F)c1ccccc1C(=O)Oc1ccc(F)cc1F | -0.4 | 2 | 22 | / | / | / | 3 | 0.6 | -4 | -28
O=C1CCCCN1CCc1c[nH]c2ccccc12 | -1.8 | 87* | 6 | / | / | / | 2 | 0.7 | -9 | -20
Cc1ccccc1NC(=O)c1snc2c(=O)[nH]cnc12 | 3.0 | -3 | 15 | -19 | -10 | -0.6 | / | 1.0 | / | -13
CN(C)CCCC1Sc2ccccc2Sc2ccccc21 (stereo unspecified) | 1.0 | 5 | -53 | -46* | -20* | -14* | 15 | 1.1 | / | -6
CCOc1cc(OCC)cc(C(=O)Nc2cccc(C(C)=O)c2)c1 | -1.4 | -4 | -2 | / | / | / | 7 | -0.3 | 9 | 7
CC1CCCC(C)N1C(=O)COc1ccc(F)cc1 (stereo unspecified) | -10 | -10 | 2 | 10 | 3 | 2.9 | -5 | -0.2 | / | 8
COc1ccc(CNC[C@@H](CCCCN(C)Cc2ccc(OC)cc2)N2C[C@H](c3ccccc3)N(CCc3ccc(Cl)c(Cl)c3)C(=O)C2=O)cc1 | -4.1 | -36 | 17 | / | / | / | 102* | 1.5 | 99* | 25
Carrying on:
SMILES | LANA-H2B inh | ALR H2O2 inh | Calb FLC | Ecoli rRNA inh | Ecoli rRNA inh OD600 | Ecoli rRNA inh RFP | B2AR ag | A1 inh | Beta cell apopt | T cruzi inh
COCCN(C(=O)CSc1n[nH]c(-c2ccc(OC)cc2)n1)c1c(N)n(Cc2ccccc2)c(=O)[nH]c1=O | 0.6 | ? | 0 | -1 | 0 | -3.1 | -8 | -0.9 | / | -11
COc1ccc([N+](=O)[O-])c(OC)c1C(=O)NC(=O)Nc1c(F)c(F)c(F)c(F)c1F | 0.5 | 38 | -3 | -5 | -1 | -5.2 | 15 | 2.1 | 4 | -2
Cc1nc(N2CCN(c3ccccn3)CC2)c2c(C)c(C(=O)Nc3ccc(F)cc3F)sc2n1 | -4.7 | -8 | -16 | 1 | -3 | 2.9 | -3 | 0.7 | 11 | 40
Cc1nn(CC(=O)Nc2ccc3c(c2)OCO3)c(C)c1[N+](=O)[O-] | 2.7 | -3 | -5 | 0 | 5 | -6.6 | 1 | -0.4 | -1 | 0
O=C(O)CCc1nnc2n(Cc3ccc(F)cc3)c(=O)c3ccccc3n12 | 2.8 | -1 | 7 | 2 | -3 | -1.3 | 4 | -0.9 | -3 | 8
Cc1ccc(Nc2nc(N)nc(CN3CCN(C)CC3)n2)cc1 | -0.9 | 11 | 12 | / | / | / | 3 | 0.1 | -3 | -4

Some of these compounds in order of SMILES length, lowest first:
SMILES | LANA-H2B inh | ALR H2O2 inh | Calb FLC | Ecoli rRNA inh | Ecoli rRNA inh OD600 | Ecoli rRNA inh RFP | B2AR ag | A1 inh | Beta cell apopt | T cruzi inh
Cc1ccc(Nc2nc(N)nc(CN3CCN(C)CC3)n2)cc1 | -0.9 | 11 | 12 | / | / | / | 3 | 0.1 | -3 | -4
O=C(O)CCc1nnc2n(Cc3ccc(F)cc3)c(=O)c3ccccc3n12 | 2.8 | -1 | 7 | 2 | -3 | -1.3 | 4 | -0.9 | -3 | 8
COc1ccc([N+](=O)[O-])c(OC)c1C(=O)NC(=O)Nc1c(F)c(F)c(F)c(F)c1F | 0.5 | 38 | -3 | -5 | -1 | -5.2 | 15 | 2.1 | 4 | -2
